# Screens deposited in PubChem BioAssay by ICCB-Longwood Screening Facility, Harvard Medical School.
# GIV Gai3 FP: blocks GIV peptide binding to rat Galpha-i3; P08753; Galpha-i3/FITC-GIV peptide fluorescence polarization, 90 min; stronger effect = lower value; scaled: aluminum fluoride 0%, vehicle 100%; percent of control (FP), % (no concentration beside the values); actives 0.42% (n = 210,000); AID 1224905;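 active = replicate mean at 85% of control or lower, very high polarization wells dropped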;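 also: wells of about 15 µL received 100 nL stock; the first replicate is given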
# Target sequence (P08753 whole entry, looked up): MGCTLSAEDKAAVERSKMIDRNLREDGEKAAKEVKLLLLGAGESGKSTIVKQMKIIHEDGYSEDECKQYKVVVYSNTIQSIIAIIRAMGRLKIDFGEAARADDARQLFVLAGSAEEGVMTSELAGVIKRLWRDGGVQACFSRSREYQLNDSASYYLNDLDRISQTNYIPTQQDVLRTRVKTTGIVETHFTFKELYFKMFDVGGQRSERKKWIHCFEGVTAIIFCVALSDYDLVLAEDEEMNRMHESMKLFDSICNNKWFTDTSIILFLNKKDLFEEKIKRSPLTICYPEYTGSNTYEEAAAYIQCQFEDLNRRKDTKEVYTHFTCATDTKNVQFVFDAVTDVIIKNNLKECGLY
# Sa growth 42C: inhibitors of Staphylococcus aureus growth at 42 °C | S. aureus RN4220 growth, OD600, 20 h; stronger effect = lower value | relative growth, % (no concentration beside the values) | actives 0.53% (n = 170,000);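 active = growth at 42 °C up to 50% and 20 or more points under that at 30 °C, or under 10% at both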;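 also: 300 nL library stock went into each well; scaled to the means of positive and negative controls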
# HCMV NEC inh: disrupts HCMV UL50-UL53 complex binding; actives 0.15% (n = 190,000); AID 1918969; inhibition, % (no concentration beside the values); HTRF UL50-UL53 interaction, normalized percent inhibition;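 active = both replicates at 50% or more, plus weaker picks with an unusually low signal ratio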;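 also: stock transfer was 100 nL into about 20 µL; 0% = negative control wells and 100% = wells with untagged competitor protein; inactives centre near -12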
# Sa growth 42C second temp: second read-out of Sa growth 42C, no call of its own (marks repeat the call); relative growth, %; measured here: growth at 30 °C;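 optical density after 20 h as mean of two plates; 100% = untreated growth and lower means inhibition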
# An asterisk follows results filed as active; nt = not tested or not shown; & = joins results of further samples.
SMILES,GIV Gai3 FP,Sa growth 42C,Sa growth 42C second temp,HCMV NEC inh
Cc1cccc(-c2nc(CCNC(=O)/C=C/c3ccco3)cs2)c1,107,84,72,-52
CCCn1c(NC(=O)CCNC(=O)c2ccco2)nc2ccccc21,nt,107,92,-22
Cc1ccc(Cl)cc1NC(=O)Cn1c(=O)n(CCC(=O)NCc2ccc3c(c2)OCO3)c(=O)c2sccc21,104,91,89,-10
CC1(C)C2CCC1(C)C(NCc1ccccc1)C2 (centres undefined),110,78,85,nt
Cc1ccc(C)c(NC(=S)NCCCO)c1,99,98,89,-12
CCN(CC(=O)Nc1cc(C)c2c(=O)oc3ccccc3c2n1)Cc1ccccc1,101,97,94,-5
Cc1ccc(C)c2sc(NC(=O)c3ccc(S(=O)(=O)N4CCCC4)cc3)nc12,97,80,90,nt
O=C(O)c1cc2nc3c(c(C(F)(F)F)n2n1)CCC3,106,81,94,-41
CCc1ccccc1NC(=O)c1cc2nc(-c3ccc(OC)c(OC)c3)cc(C(F)(F)F)n2n1,106,94,92,-1
COc1ccc2c(C(O)CN3CCN(c4ccc(F)cc4)CC3)c[nH]c2c1 (centres undefined),117,nt,nt,-2
O=C1c2ccccc2C(O)(c2ccccc2)N1C1CC1 (centres undefined),nt,87,86,-7
COc1cc(C)c(Cl)cc1S(=O)(=O)NCCc1c(C)[nH]c2ccccc12,109,113,61,-14
CC1=C(C(=O)N2CCCCC2)C(c2cccc(Cl)c2)n2c(nc3ccccc32)N1 (centres undefined),100,99,85,5
CCCN(CCC)C(=O)c1ccc(OC)cc1,109,98,107,18
Nc1cc(-c2cccc(Cl)c2)nn1-c1ccc(S(N)(=O)=O)cc1,111,108,110,2
COc1ccccc1CNC(=O)c1ccc2c(c1)CCN2S(=O)(=O)c1ccc(Cl)cc1,105,103,94,-25
Cc1cc(C)cc(NC(=O)C(=O)NCC(c2cccnc2)N2CCN(c3ccccc3)CC2)c1 (centres undefined),103,103,96,-5
COc1ccc(CNC(=O)C(C)Sc2nnnn2C)cc1 (centres undefined),nt,97,91,-11
C=Cc1ccc(Cn2c(C)nc3onc(C)c3c2=O)cc1,108,nt,nt,-8
CN(C)c1ccc(C2CC(c3ccc(Br)cc3)=NN2S(C)(=O)=O)cc1 (centres undefined),104,101,91,nt

# Gathered by group, those above with a halogen (9)
SMILES,GIV Gai3 FP,Sa growth 42C,Sa growth 42C second temp,HCMV NEC inh
Cc1ccc(Cl)cc1NC(=O)Cn1c(=O)n(CCC(=O)NCc2ccc3c(c2)OCO3)c(=O)c2sccc21,104,91,89,-10
O=C(O)c1cc2nc3c(c(C(F)(F)F)n2n1)CCC3,106,81,94,-41
CCc1ccccc1NC(=O)c1cc2nc(-c3ccc(OC)c(OC)c3)cc(C(F)(F)F)n2n1,106,94,92,-1
COc1ccc2c(C(O)CN3CCN(c4ccc(F)cc4)CC3)c[nH]c2c1 (centres undefined),117,nt,nt,-2
COc1cc(C)c(Cl)cc1S(=O)(=O)NCCc1c(C)[nH]c2ccccc12,109,113,61,-14
CC1=C(C(=O)N2CCCCC2)C(c2cccc(Cl)c2)n2c(nc3ccccc32)N1 (centres undefined),100,99,85,5
Nc1cc(-c2cccc(Cl)c2)nn1-c1ccc(S(N)(=O)=O)cc1,111,108,110,2
COc1ccccc1CNC(=O)c1ccc2c(c1)CCN2S(=O)(=O)c1ccc(Cl)cc1,105,103,94,-25
CN(C)c1ccc(C2CC(c3ccc(Br)cc3)=NN2S(C)(=O)=O)cc1 (centres undefined),104,101,91,nt

# (further entries)
SMILES,GIV Gai3 FP,Sa growth 42C,Sa growth 42C second temp,HCMV NEC inh
CCc1nnc2ccc(C(=O)O)cn12,101,nt,nt,-33
CCN1CCN(CCCNC(=S)Nc2ccc3nc(N4CCN(CC)CC4)cc(C)c3c2)CC1,102,94,92,-11
COc1cc(/C=C\C(=O)OCn2nnc3ccccc3c2=O)cc(OC)c1OC,103,66,26,nt
COc1ccc(NC(=O)c2cnc(SCC(=O)Nc3nc4ccc(C)cc4s3)n(C)c2=O)cc1,93,140,89,nt
CC1(C(=O)NN)NC2(CCCCC2)Cc2ccccc21 (centres undefined),100,126,102,-5
Cc1cc2oc(C(=O)NCCc3nc(-c4ccccc4)no3)c(C)c2cc1C,109,nt,nt,-4
CCC(CO)NCc1ccc(-c2ccccc2)o1 (centres undefined),100,nt,nt,-22
CCc1nc(-c2ccc3c(c2)CCN3C(=O)Cc2ccc(Cl)cc2)no1,109,nt,nt,-25
CN(C)c1ccc(/C=N/N2CC(O)=C(c3nc4ccccc4s3)C2=N)cc1,nt,96,98,-20
O=S(=O)(Nc1cccc(-c2ccc(N3CCCCC3)nn2)c1)c1cccs1,105,93,86,nt
O=c1[nH]c2ccccc2n1CCCSc1nc2ccccc2[nH]1,101,79,73,nt
CCOC(=O)c1c(C)[nH]c(C)c1C(=O)COC(=O)c1ccc(F)c(S(=O)(=O)N2CCOCC2)c1,nt,78,88,-3
CCC(=O)Nc1nnc(S(=O)(=O)N2CCCCCC2)s1,100,110,83,-12
O=C(/C=C/c1cccs1)NC1CCS(=O)(=O)C1 (centres undefined),100,104,90,-69
CC(=O)N1c2ccccc2CC1C(=O)NC1CCN(Cc2ccccc2)CC1 (centres undefined),101,nt,nt,-24
Cc1ccc(N(CC(=O)N2CCN(c3ccc(Cl)cc3)CC2)S(=O)(=O)c2c(C)noc2C)cc1,102,94,91,-11
NC1CCN(c2ncc(C(F)(F)F)cc2Cl)CC1,98,113,96,nt
O=C(CSc1nnc2ccc3ccccc3n12)c1ccccc1,106,68,93,nt
COc1cccc(Cc2nc3ccccc3nc2SCC(=O)N2CCc3ccccc32)c1,102,84,85,nt
O=C(Nc1ccccc1Cl)c1ccc(-n2cnc3cccnc32)cc1,112,nt,nt,-7
O=C(NCc1cccs1)C1C2C=CC3(CN(Cc4cccs4)C(=O)C13)O2 (centres undefined),103,87,88,-28
COc1ccc(Cl)cc1NCc1nc2nc(C)c(C)c(=O)n2[nH]1,107,nt,nt,3
Cc1c(C(=O)O)oc2ccc3c(c12)C=CC1(CCCC1)O3,102,52,51,nt
CC(C)CCNC(=O)C1(C)CCC(=O)N1CCc1ccccc1 (centres undefined),108,93,99,-8
CN(C)C(=O)CN1c2ccccc2-c2ccccc2S1(=O)=O,103,89,85,-5
CS(=O)(=O)N1CCC(C(=O)O)CC1,108&104,99,104,6
CCN(CC)S(=O)(=O)c1ccc(NC(=O)c2ccc(C)cc2)cc1,nt,100,86,5
CCOC(=O)c1ccc(-c2ccc(/C=N/NC(=O)Cc3nc4ccccc4n3C)o2)cc1,nt,70,87,-9
Cc1nc(-c2cc(S(=O)(=O)NCC(=O)NC3CCCc4ccccc43)c(C)s2)no1 (centres undefined),116,nt,nt,3
COc1ccc2[nH]cc(CCNC(=O)c3cc(C)nc4c3c(=O)n(C)c(=O)n4C)c2c1,106,nt,nt,-31
O=C(Cn1ccc2ccccc2c1=O)NCCC(=O)Nc1ccc(F)cc1F,103,97,90,-12
Cc1ccc(-n2nc(C)c3c2NC2=C(C(=O)CC(C)(C)C2)C3c2ccc(C)o2)cc1 (centres undefined),nt,24,4,-12
Cc1cccc(C(=O)OC(C(=O)c2ccccc2)c2ccccc2)c1O (centres undefined),95,99,104,-7
Cc1onc(-c2ccccc2)c1C(=O)OCc1ncc(-c2ccccc2)o1,nt,88,89,1
O=C(O)CCCS(=O)(=O)c1ccccc1,109,71,95,-1
Cc1ccccc1NS(=O)(=O)c1ccc2[nH]cc(C(=O)NCCc3ccccc3)c(=O)c2c1,102,109,85,nt
CCOC(=O)c1cccc(-c2ccc(C3C(C#N)=C(N)OC4c5ccccc5OC(=O)C43)o2)c1 (centres undefined),nt,68,88,-11
COC(=O)c1sccc1S(=O)(=O)Nc1ccc(Cl)cc1,103,91,94,-24
O=C(COc1ccccc1[N+](=O)[O-])N1CCC(c2nc3ccccc3o2)CC1,99,99,85,-30
COC(=O)c1cc(CN2CCN(C)CC2)ccc1O,nt,91,92,4

# Single records, as listed above:
# COC(=O)c1sccc1S(=O)(=O)Nc1ccc(Cl)cc1 in the list: GIV Gai3 FP = 103; Sa growth 42C = 91; Sa growth 42C second temp = 94; HCMV NEC inh = -24
# O=C(O)CCCS(=O)(=O)c1ccccc1 in the list: GIV Gai3 FP = 109; Sa growth 42C = 71; Sa growth 42C second temp = 95; HCMV NEC inh = -1

# Next structures follow.
SMILES,GIV Gai3 FP,Sa growth 42C,Sa growth 42C second temp,HCMV NEC inh
NC(=O)CC(CC(N)=O)c1c(Cl)cccc1Cl,106,102,105,-4
CCOc1ccc(-c2nn(CC(=O)NC3CCCC3)c3c2cnc2ccc(F)cc23)cc1,106&101,108,99,0
CC(C)c1ccccc1NC(=O)c1ccc(Br)o1,98,120,119,-5
O=C(OCC(=O)N1CCN(C(=O)c2ccco2)CC1)c1ccccc1NS(=O)(=O)c1ccc(F)c(F)c1,nt,98,101,18
O=C(CSCc1ccc(F)cc1)N1CCOCC1,106,73,98,3
CC(=O)Nc1ccc(Oc2nc(C)cc(C)n2)cc1,98,114,91,-1
CC(=O)c1cccc(NC(=O)C2COc3ccccc3O2)c1 (centres undefined),102,nt,nt,-4
O=c1c2cc3c(=O)n(CC4CCCO4)c(=O)c3cc2c(=O)n1CC1CCCO1 (centres undefined),105,90,92,1
Cn1c(C(=O)N2CCN(c3ccccc3F)CC2)cc2c(=O)[nH]c3ccccc3c21,97,100,86,nt
Cc1ccc(-c2noc(-c3ccc(NC4CCCC4)c([N+](=O)[O-])c3)n2)cc1,102,94,94,11
CC(C)Sc1nc2sc3c(c2c(=O)n1-c1ccccc1)CCCC3,103,99,89,-9
N=C1C(c2nc3ccccc3[nH]2)=C(O)CN1c1ccccc1,101&99,95,100,12&-6
O=C(NCCn1cc(SCC(=O)N2CCCCC2)c2ccccc21)c1ccccc1F,111,94,94,nt
CCOC(=O)/C(C#N)=C/c1cn(-c2ccccc2)nc1-c1cccnc1,nt,77,95,-22
CCc1ccc(NC(=O)CC2C(=O)N(c3cccc(C)c3)C(=O)N2Cc2cccs2)cc1 (centres undefined),105,79,78,nt
O=C(c1cccs1)N(Cc1cccnc1)c1nc2c(Cl)cccc2s1,106,49,45,nt
CC1(C)CC(=O)C2=C(C1)OC1=C(C(=O)CC(C)(C)C1)C2c1cccc(OCC(=O)N2CCCCC2)c1,102,nt,nt,-34
N#CC1(c2ccccc2)CCCN1C(=O)c1ccco1 (centres undefined),103,92,103,-21
N=C1/C(=C\c2cccn2Cc2ccccc2)C(=O)N=C2SC(N3CCCCC3)=NN12,103,105,97,-11
O=S1(=O)CC(S(=O)(=O)c2ccccc2)c2ccccc21 (centres undefined),99,90,90,-34
C=CCn1c(=O)c(C(=O)NCc2cccnc2)c(O)c2ccccc21,nt,98,77,-14
CSc1sc(-c2nc(C)cs2)c(C)c1-c1ccn(S(C)(=O)=O)n1,96,106,81,-14
Cc1nc2ccccn2c(=O)c1NC(=O)c1ccc(C(F)(F)F)cc1,100,99,92,nt
Cc1ccnc(SCC(=O)/C=C2\N(C)c3ccccc3C2(C)C)n1,nt,120,83,3
O=C(C1CCN(Cc2ccccc2)CC1)N1CCN(c2ccccc2F)CC1,101,90,91,9
CC12CN(Cc3ccccc3)CC(C)(CN(Cc3ccccc3)C1)C2=O,103,119,87,nt
CNC(=O)C1=Cc2cc(Br)ccc2OC1,99,nt,nt,-111
Cc1ccc2c(=O)cc(C(=O)NCc3ccccc3)oc2c1,108,102,82,-26
Cn1cc(CCC(=O)NC2CCCCC2)c2ccccc21,104,109,99,nt
COc1ccc(-n2cc(-c3ccc4c(c3)OCO4)n(CC(=O)Nc3cc(Cl)ccc3C)c2=O)cc1,103,105,95,4
O=C(NCCO)c1cnc2sc3c(n2c1=O)CCCC3,111,nt,nt,-31
N#Cc1ccc(NC(=O)C2CCN(c3nccc(C(F)(F)F)n3)CC2)cc1,109,106,84,-7
CCCCN1C(=O)CC(C(=O)O)C1c1ccc(OC)cc1 (centres undefined),nt,95,98,-10
COC(=O)CC1SC(=O)NC1=Nc1ccc(O)cc1 (centres undefined),104,108,96,nt
COc1ccc(C(=O)N=c2nc3ccccn3s2)cc1,nt,76,92,-38
CCOc1ccc(S(N)(=O)=O)cc1-c1nc2c(C(C)(C)C)nn(C)c2c(=O)[nH]1,98,103,90,-3
CCCNC(=O)CSc1nc2nc(C)c(Cc3cccc(C)c3)c(C)n2n1,99,119,87,nt
Cc1ccc(C)c(CN2C(=O)c3ccccc3S(=O)(=O)c3ccc(C(=O)N4CCc5ccccc54)cc32)c1,109,124,109,-14
CC1CCc2c(sc(NC(=O)CSc3nnc4ccccn34)c2C#N)C1 (centres undefined),99,nt,nt,-19
CCCCOc1ccc(C(=O)NCCOC)cc1,102,103,99,3
COC(=O)c1c2n(c3ccccc3c1=O)CCCS2,118,74,87,-10
CN1C(N)=NC(=O)/C1=C/c1coc2ccccc2c1=O,97,99,82,-35
CCCC1=NN(C(=O)C(C)(C)C)C(=O)C1Cc1c(F)cccc1Cl (centres undefined),100,88,92,-9
Cc1cc(C)nc(N2NC(c3ccccc3)C(C#N)=C2O)n1 (centres undefined),103,123,85,-35
COc1ccc(CCNC(=O)c2ccc(CNS(=O)(=O)c3ccccc3)cc2)cc1OC,98,98,90,13
O=C(NC1CCCCC1)c1ccc(CSc2nc3ccncc3n2Cc2ccccc2F)cc1,96,101,97,-23
CCn1cc(C(=O)N2CCN(c3ccccc3)CC2)c(=O)c2cc(S(=O)(=O)N3CCOCC3)ccc21,98,96,94,-1
CCOC(=O)c1c(C)n(C)c2c1cc(OC(=O)COc1ccccc1)c1ccccc12,99,nt,nt,-8
C[N+]1(CC(=O)OC2CCCCCCCCCCC2)CCCC1,107,20*,54*,nt
